Compound activity (PubChem BioAssay)
NPYLR7 ag: mosquito NPYLR7 agonism; HEK293T NPYLR7/Galpha15, GCaMP6s calcium fluorescence; activation, % at 10 µM; 270,000 compounds, 0.15% hits; AID 1259423; in the data active = activation above about 40%;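 note: 0% = vehicle and 100% = reference agonist at the receptor; some compounds past the cut are filed as inactive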
NPYLR7 ag max-min: second read-out of NPYLR7 ag, no call of its own (marks repeat the call); activation, %; measured here: Max-Min RFU normalised activation; some inactives read as strong as hits;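 span of the calcium signal over five minutes; 0% = vehicle and 100% = native peptide agonist; compound fluorescence can raise it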
The depositor's hits bear a star; & = joins results of further samples.

Sample of the layout:
`Clc1ccc2nc(N3CCCCC3)nc(-c3ccccc3)c2c1` gave NPYLR7 ag 11 and NPYLR7 ag max-min 7.
`CCCn1c(-c2ccc(C)cc2)nc2c(c(=O)c3ccccc3n2C)c1=O` gave NPYLR7 ag 3 and NPYLR7 ag max-min 0.
`CCOC(=O)C(C)(C)N(C)C(=O)c1cc(C)sc1C` gave NPYLR7 ag 3 and NPYLR7 ag max-min 0.
Screening Cc1nn(C)cc1CCC(=O)OC1C2CCCOC2C1(C)C (configuration not stated) returned NPYLR7 ag 2 and NPYLR7 ag max-min 2.
O=C(COCc1ccccc1)N1CCN(c2nccc(-c3cccs3)n2)CC1 was read as NPYLR7 ag 25 and NPYLR7 ag max-min 31.
Cc1ccc(CN(Cc2ccccc2)Cc2nc(C(=O)NC(C)C)co2)c(C)c1 was read as NPYLR7 ag 17 and NPYLR7 ag max-min 4.
`CCC(C(=O)NCc1ccco1)n1c(=O)n(CC)c(=O)c2ccccc21` (configuration not stated) gave NPYLR7 ag 21 and NPYLR7 ag max-min 18.
For Cc1cccc(Nc2cc(N3CCN(CCCOc4ccccc4)CC3)ncn2)c1 the results were NPYLR7 ag 7 and NPYLR7 ag max-min 6.
`COC1=CC=CC(=Cc2c(N)n3nc(C4CCCCC4)sc3nc2=O)C1=O` gave NPYLR7 ag 0 and NPYLR7 ag max-min -1.
CCSc1nnc(NC(=O)c2csc3c2CCCC3)s1 was read as NPYLR7 ag 7 and NPYLR7 ag max-min 6.
Screening COC(=O)CCC(=O)OC[C@]1(C)CCC[C@@]2(C)C3CC[C@]4(C)C=CC3(CCC12)C4 (some centres not stated) returned NPYLR7 ag -7 and NPYLR7 ag max-min -18.
For CCOC(=O)C1(Cc2ccccc2C)CCCN(C(=O)c2cc(OC)cc(OC)c2)C1 (configuration not stated) the results were NPYLR7 ag 4 and NPYLR7 ag max-min 2.

The list itself, previewed entries included:
`Clc1ccc2nc(N3CCCCC3)nc(-c3ccccc3)c2c1` gave NPYLR7 ag 11 and NPYLR7 ag max-min 7.
`CCCn1c(-c2ccc(C)cc2)nc2c(c(=O)c3ccccc3n2C)c1=O` gave NPYLR7 ag 3 and NPYLR7 ag max-min 0.
`CCOC(=O)C(C)(C)N(C)C(=O)c1cc(C)sc1C` gave NPYLR7 ag 3 and NPYLR7 ag max-min 0.
Screening Cc1nn(C)cc1CCC(=O)OC1C2CCCOC2C1(C)C (configuration not stated) returned NPYLR7 ag 2 and NPYLR7 ag max-min 2.
O=C(COCc1ccccc1)N1CCN(c2nccc(-c3cccs3)n2)CC1 was read as NPYLR7 ag 25 and NPYLR7 ag max-min 31.
Cc1ccc(CN(Cc2ccccc2)Cc2nc(C(=O)NC(C)C)co2)c(C)c1 was read as NPYLR7 ag 17 and NPYLR7 ag max-min 4.
`CCC(C(=O)NCc1ccco1)n1c(=O)n(CC)c(=O)c2ccccc21` (configuration not stated) gave NPYLR7 ag 21 and NPYLR7 ag max-min 18.
For Cc1cccc(Nc2cc(N3CCN(CCCOc4ccccc4)CC3)ncn2)c1 the results were NPYLR7 ag 7 and NPYLR7 ag max-min 6.
`COC1=CC=CC(=Cc2c(N)n3nc(C4CCCCC4)sc3nc2=O)C1=O` gave NPYLR7 ag 0 and NPYLR7 ag max-min -1.
CCSc1nnc(NC(=O)c2csc3c2CCCC3)s1 was read as NPYLR7 ag 7 and NPYLR7 ag max-min 6.
Screening COC(=O)CCC(=O)OC[C@]1(C)CCC[C@@]2(C)C3CC[C@]4(C)C=CC3(CCC12)C4 (some centres not stated) returned NPYLR7 ag -7 and NPYLR7 ag max-min -18.
For CCOC(=O)C1(Cc2ccccc2C)CCCN(C(=O)c2cc(OC)cc(OC)c2)C1 (configuration not stated) the results were NPYLR7 ag 4 and NPYLR7 ag max-min 2.
For Cc1cc(C)nc(SCc2c(C(=O)N3CCOCC3)nnn2-c2ccccc2)n1 the results were NPYLR7 ag -3 and NPYLR7 ag max-min -6.
`COc1cc(CC(=O)N2CCOC(COc3ccc(F)cc3)C2)cc(OC)c1` (configuration not stated) gave NPYLR7 ag 8 and NPYLR7 ag max-min 3.
`CCCCN(Cc1cccn1C)C(=O)CN(C(=O)Nc1ccc(C(C)C)cc1)C(C)C` gave NPYLR7 ag -2 and NPYLR7 ag max-min 3.
CCOC(=O)c1ccc(NC(=O)CSc2nc(=O)n3ccccc3n2)cc1 was read as NPYLR7 ag 1 and NPYLR7 ag max-min -1.
For CCc1nc2n(n1)C(=O)C(C(c1cccs1)N1CCN(Cc3ccccc3)CC1)S2 (configuration not stated) the results were NPYLR7 ag -4 and NPYLR7 ag max-min -11.
`CCCCn1c(=O)[nH]c(=O)c2c1nc(CSc1nc(C)cs1)n2CCC` gave NPYLR7 ag -7 and NPYLR7 ag max-min -8.
O=C(NC[C@H]1C[C@H]2C=C[C@H]1C21CC1)c1cc(COc2ccc(-n3cncn3)cc2)on1 was read as NPYLR7 ag 2 and NPYLR7 ag max-min 0.
For N#Cc1c(-c2ccco2)cc(C2CC2)[nH]c1=S the results were NPYLR7 ag -2 and NPYLR7 ag max-min -4.
COc1cccc(OC)c1OCCCOc1ccc(Cl)cc1Cl was read as NPYLR7 ag -6 and NPYLR7 ag max-min 8.
For COc1ccc(-c2ccc3c(c2)COC2(CCN(C(=O)c4ccc(C)cc4)CC2)O3)c(OC)c1 the results were NPYLR7 ag -5 and NPYLR7 ag max-min -11.
For COCCN(Cc1ccc(C(O)(c2cccs2)c2cccs2)o1)Cc1ccccc1OC the results were NPYLR7 ag -1 and NPYLR7 ag max-min 26.
Screening C=C1C(C2(C)C=CC(=O)C(C)(C)C2CC(=O)OC)CC[C@@]2(C)[C@H](c3ccoc3)OC(=O)C3OC132 (some centres not stated) returned NPYLR7 ag -10 and NPYLR7 ag max-min -14.
CCOc1ccc(-n2nnc3c(N4CCN(S(=O)(=O)c5ccc(C)cc5C)CC4)ncnc32)cc1 was read as NPYLR7 ag -3 and NPYLR7 ag max-min -11.
For Cn1cc(Cl)cc1C(=O)Nc1cnc(-c2ccccc2)nc1 the results were NPYLR7 ag 9 and NPYLR7 ag max-min 3.
`Cc1[nH]n(-c2ccccc2)c(=O)c1N=Nc1cccc(Cl)c1` gave NPYLR7 ag -5 and NPYLR7 ag max-min -11.
Screening CC(C)=CCN1CCN(Cc2c(O)ccc3ccccc23)CC1CCO (configuration not stated) returned NPYLR7 ag 8 and NPYLR7 ag max-min 7.
`Cc1ccc(N2CC(C(=O)NC(C)c3cccc(Cl)c3)CC2=O)cc1` (configuration not stated) gave NPYLR7 ag 6 and NPYLR7 ag max-min 1.
Screening CCOc1ccc(-c2cc(C(=O)NCc3cc(C(F)(F)F)cc(C(F)(F)F)c3)c3ccccc3n2)cc1 returned NPYLR7 ag 25 and NPYLR7 ag max-min 16.
`COCCN1CCC(CN2CCN(c3nccc4ccccc34)CC2)CC1` gave NPYLR7 ag -4 and NPYLR7 ag max-min -4.
Screening CCCCN(C)C(=O)c1sc(=O)n(Cc2ccccc2C)c1C returned NPYLR7 ag -6 and NPYLR7 ag max-min -3.
`CO/N=C(/C(=O)NC1C(=O)N2C(C(=O)O)=C(CSc3nc(=O)c(=O)[nH]n3C)CS[C@H]12)c1csc(N)n1` (some centres not stated) gave NPYLR7 ag -12 and NPYLR7 ag max-min -15.
For CC(=O)Nc1cc(S(=O)(=O)Nc2ccc(C)c(F)c2)ccc1C the results were NPYLR7 ag 10 and NPYLR7 ag max-min 9.
`CCOC(=O)CCCNC(=O)CSc1n[nH]c(-c2ccc(Br)cc2)n1` gave NPYLR7 ag -1 and NPYLR7 ag max-min 6.
For CC(C)Cc1nc2sc3c(NCCN4CCOCC4)ncnc3c2c2c1COC(C)(C)C2 the results were NPYLR7 ag 11 and NPYLR7 ag max-min 7.
`O=C(c1cc(-c2ccccc2F)nc2cc(-c3ccccc3)nn12)N1CCN(c2ccccc2F)CC1` gave NPYLR7 ag -1&18 and NPYLR7 ag max-min 5&27.
`CCCc1nc(C)c(CNC(=O)CC2COCCN2)s1` (configuration not stated) gave NPYLR7 ag -4 and NPYLR7 ag max-min -3.
Cc1oc2nc[nH]c(=O)c2c1C(=O)O was read as NPYLR7 ag -1 and NPYLR7 ag max-min -5.
For Cc1ccc(C(=O)N(CC(=O)N(Cc2cccn2C)CC(C)C)C2CC2)cc1[N+](=O)[O-] the results were NPYLR7 ag -5 and NPYLR7 ag max-min -1.
Screening COc1ccccc1-n1cc(C(=O)N2CCC3(CN(C)C(=O)O3)C2)cn1 (configuration not stated) returned NPYLR7 ag 16 and NPYLR7 ag max-min 16.
Screening Clc1ccc(-c2noc(CN3CCCC(OCc4cccnc4)C3)n2)cc1 (configuration not stated) returned NPYLR7 ag 0 and NPYLR7 ag max-min -5.
`CC(NCC1CNc2ccnn2C1)c1ccccc1Br` (configuration not stated) gave NPYLR7 ag 8 and NPYLR7 ag max-min 4.
For CC(=O)N[C@@H]1Cc2ccccc2[C@H]1NC(=O)c1cn[nH]n1 the results were NPYLR7 ag 0 and NPYLR7 ag max-min -2.
`O=C(c1ccc(Cl)c(Cl)c1)N(Cc1ccco1)CC1CCCO1` (configuration not stated) gave NPYLR7 ag 10 and NPYLR7 ag max-min 6.
Screening COc1ccccc1NC(=O)NCCCn1nc(-c2ccco2)ccc1=O returned NPYLR7 ag -2 and NPYLR7 ag max-min -3.
CCCCNC(=O)C1(C)CCN1C(=O)c1ccc2c(c1)CCO2 (configuration not stated) was read as NPYLR7 ag -5 and NPYLR7 ag max-min -5.
For COc1ccc(C(C)=O)cc1CN1C(=O)C2(CCC2)ON=C1c1cc(Cl)ccc1OC the results were NPYLR7 ag 10 and NPYLR7 ag max-min 2.
COc1ccccc1C(=O)N(CC(=O)N1CCc2sccc2C1COc1ccc(C(C)C)cc1)Cc1ccco1 (configuration not stated) was read as NPYLR7 ag -2 and NPYLR7 ag max-min -3.
COc1ccc(CN(CCc2c[nH]c3ccccc23)C(=O)CN(CC(C)C)C(=O)Nc2ccc(C#N)cc2)cc1OC was read as NPYLR7 ag -4 and NPYLR7 ag max-min 6.
Screening NC(=O)C1CCN(C(=O)C(Oc2cccc(Br)c2)c2ccccc2)C1 (configuration not stated) returned NPYLR7 ag 1 and NPYLR7 ag max-min -2.
CCC(C(=O)N1CC(Oc2ccccc2F)C1)n1cccn1 (configuration not stated) was read as NPYLR7 ag -5 and NPYLR7 ag max-min -8.
CCOC(=O)Cn1c(C)cn2c3c(=O)n(Cc4cc(C)ccc4C)c(=O)n(C)c3nc12 was read as NPYLR7 ag 21 and NPYLR7 ag max-min 19.
Screening Cc1c(C(=O)N2CCC(C(N)=O)CC2)cnn1-c1ccc(Cl)cc1 returned NPYLR7 ag 3 and NPYLR7 ag max-min 2.
Screening O=C(CSc1nc2[nH]ncc2c(=O)[nH]1)Nc1cccc(Cl)c1 returned NPYLR7 ag -18 and NPYLR7 ag max-min -13.
`COc1cc(/C=C/C(=O)c2c(O)cc(C)oc2=O)ccc1O` gave NPYLR7 ag 6 and NPYLR7 ag max-min 6.
For CC(C)CCN(Cc1ccc(OS(C)(=O)=O)cc1)C(=O)c1cccc([N+](=O)[O-])c1 the results were NPYLR7 ag -7 and NPYLR7 ag max-min -9.
CCOC(=O)c1c(CN2CCN(c3ccccc3C)CC2)n(-c2ccccc2)c2cc(Br)c(OC)cc12 was read as NPYLR7 ag -8 and NPYLR7 ag max-min -12.
For CSc1ccc(-c2cccc([N+](=O)[O-])c2)nn1 the results were NPYLR7 ag 1 and NPYLR7 ag max-min 0.
Screening CC1(C)Cc2ccccc2C(Nn2cnnc2)=N1 returned NPYLR7 ag -1 and NPYLR7 ag max-min 3.
Screening COC(=O)[C@@H](NC(=O)C1CC2CCCCN2C1)C(C)(C)C (some centres not stated) returned NPYLR7 ag 2 and NPYLR7 ag max-min -2.
For Cn1c(=O)c2c(nc(N3CCCC3)n2Cc2ccccc2Cl)n(C)c1=O the results were NPYLR7 ag 2 and NPYLR7 ag max-min -2.
`Cn1c(=O)n(C)c2cc(CNC(=O)C3CCC(=O)N(CCc4ccccn4)C3)ccc21` (configuration not stated) gave NPYLR7 ag 5&1 and NPYLR7 ag max-min 1&-4.
COC1C=CC(CNC(=O)c2sc3nc(-c4cccc([N+](=O)[O-])c4)cn3c2C)(OC)O1 (configuration not stated) was read as NPYLR7 ag 1 and NPYLR7 ag max-min 1.
Screening O=C(C1=COc2ccc(Cl)cc2C1)N1CCN(c2nc3nccc(-c4ccc5c(c4)OCO5)n3n2)CC1 returned NPYLR7 ag 5 and NPYLR7 ag max-min 1.
For Cc1ccc(Cn2nc(C)c(C(=O)N3CCN(C4CCS(=O)(=O)C4)CC3)c2Cl)cc1 (configuration not stated) the results were NPYLR7 ag 2 and NPYLR7 ag max-min -1.
Screening COc1ccc(N)cc1S(=O)(=O)Nc1ccc(I)cc1 returned NPYLR7 ag 1 and NPYLR7 ag max-min 0.
`COc1ccc(Nc2nc(N3CCN(C(=O)c4ccco4)CC3)nc3[nH]ncc23)cc1` gave NPYLR7 ag 3 and NPYLR7 ag max-min 0.
`Cc1ccc(CN(Cc2ccccc2)C(=O)CN(CC2CCCO2)C(=O)c2ccc(C(F)(F)F)cc2)o1` (configuration not stated) gave NPYLR7 ag -2 and NPYLR7 ag max-min 0.
O=C(NC(C(=O)NC1CC1)C1CCN(C(=O)C2CCCC2)CC1)c1cccs1 (configuration not stated) was read as NPYLR7 ag -8 and NPYLR7 ag max-min -7.
For COC(=O)CSc1nc2ccccc2c(=O)n1Cc1ccc(OC)cc1 the results were NPYLR7 ag 5 and NPYLR7 ag max-min 1.
`Cc1c(C(=O)N2CCN(C(=O)NC3CCCCC3)CC2)cc(-c2ccc(Cl)cc2)n1-c1cccc(F)c1` gave NPYLR7 ag 18 and NPYLR7 ag max-min 24.
Screening CC(=O)c1ccc(N2CCN(C(=O)c3cc([N+](=O)[O-])ccc3N3CCOCC3)CC2)c(F)c1 returned NPYLR7 ag 0 and NPYLR7 ag max-min -5.
Screening O=S(=O)(Oc1ccc(Cl)cc1Cl)c1ccc(F)cc1 returned NPYLR7 ag 5 and NPYLR7 ag max-min 10.

A portion of the library (hit frequency here may not be typical).
